Screens as filed in PubChem.
Arbovirus inh: antivirals against arbovirus infection; actives 0.37% (n = 200,000); arbovirus infection cell-based antiviral screen; inhibition, % at 10 µM;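 active means inhibition from about 30%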;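 further: bluetongue infection of BSR cells; cell survival read as ATP light after 72 h; 0% = infected wells without compound and 100% = uninfected wells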
YopH PTP inh: inhibitors of Yersinia enterocolitica YopH tyrosine phosphatase; AID 898; fluorescence Ex485/Em525; inhibition, %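 (about 10 µM by stock and volumes)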; actives 0.16% (n = 140,000);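 active means inhibition of 50% or more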;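 further: controls were vehicle for no effect and minimum signal wells for full effect; inactives centre near -20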
Mtb betalactam: beta-lactam sensitization of Mtb H37Rv; inhibition, % at 25 µM; actives 0.27% (n = 330,000); M. tuberculosis H37Rv growth with meropenem, percent inhibition; hits of this screen are not shown here;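 active means about 74% or more and at least 40 points above the plate without the antibiotic, then above 30% in a dose series; inconclusive means first-round hits that could not be retested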;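 further: growth measured after seven days incubation then overnight dye step; 0% = bacteria only wells and 100% = bacteria with antibiotic; twin plates without the antibiotic show which effects depend on it; some results filed as inactive read as strong as hits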
RecA splice inh: inhibitors of M. tuberculosis RecA intein splicing; P9WHJ3; AID 2221; inhibition, %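 (about 9 µM by stock and volumes)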; cell-free RecA intein splicing, fluorescence; actives 0.75% (n = 290,000); in the data active means inhibition above about 30%; inconclusive means no clear call, values can overlap the other calls;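 further: 0% = vehicle wells and 100% = reference inhibitor control wells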
Target sequence (P9WHJ3 whole entry, looked up, canonical isoform): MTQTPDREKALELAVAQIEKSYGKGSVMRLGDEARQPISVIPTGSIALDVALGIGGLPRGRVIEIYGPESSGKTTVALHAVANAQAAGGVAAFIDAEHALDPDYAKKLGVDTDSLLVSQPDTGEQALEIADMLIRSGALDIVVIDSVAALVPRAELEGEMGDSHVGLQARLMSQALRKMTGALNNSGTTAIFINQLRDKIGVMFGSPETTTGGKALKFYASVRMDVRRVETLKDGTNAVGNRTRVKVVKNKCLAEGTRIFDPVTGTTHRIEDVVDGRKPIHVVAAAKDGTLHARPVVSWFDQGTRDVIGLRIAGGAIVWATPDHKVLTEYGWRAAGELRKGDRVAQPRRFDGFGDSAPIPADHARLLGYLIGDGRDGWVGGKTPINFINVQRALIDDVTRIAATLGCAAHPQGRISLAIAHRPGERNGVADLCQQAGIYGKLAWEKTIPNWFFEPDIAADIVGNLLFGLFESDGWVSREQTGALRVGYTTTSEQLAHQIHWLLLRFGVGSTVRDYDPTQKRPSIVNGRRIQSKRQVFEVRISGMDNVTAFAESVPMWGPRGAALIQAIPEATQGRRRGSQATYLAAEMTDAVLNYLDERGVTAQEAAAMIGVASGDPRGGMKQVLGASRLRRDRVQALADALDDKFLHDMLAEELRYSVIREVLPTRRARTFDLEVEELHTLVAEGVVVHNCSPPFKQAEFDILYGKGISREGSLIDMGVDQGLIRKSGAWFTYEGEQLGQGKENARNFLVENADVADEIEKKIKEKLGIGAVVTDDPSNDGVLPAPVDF
Mtb H37Rv: M. tuberculosis H37Rv growth inhibitors, H37Rv strain (AID 1626). actives 0.95% (n = 220,000). one-dose inhibition, % at 10 µM; IC50 in µM for titrated hits. M. tuberculosis H37Rv growth inhibition; higher % means a stronger effect;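 active means confirmed in a dose series; inconclusive means inhibition above 80% but not taken into the dose series; inactive means below 80% or under 30% at every dose of the series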;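 further: bacteria incubated seven days before Alamar blue readout; 0% = bacteria only wells and 100% = bacteria with antibiotic wells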
Arbovirus inh repeat: second read-out of Arbovirus inh, no call of its own (marks repeat the call); inhibition, %; measured here: 10K subset replicate screen; many hits read low in the repeat;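 first of two repeat runs on a subset; 0% = infected and 100% = uninfected wells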
Starred values were filed as active, the others as inactive; ? = inconclusive; · = no result given. Some of the compounds tested; the hit share may differ from the screen's.

SMILES	Arbovirus inh	YopH PTP inh	Mtb betalactam	RecA splice inh	Mtb H37Rv	others
CCC(C)C(=O)Nc1nc(-c2ccc3c(c2)NC(=O)CO3)cs1 (stereo unspecified)	-7	3	-2	2.3	7%
Cn1cccc1CC(=O)N/N=C\c1ccccc1	-2	·	0	·	-10%
CCCC(=O)N1CCN(c2ccc(NC(=O)c3cccs3)cc2)CC1	-13	·	0	-2.0	-5%
COc1ccc(C2CC(c3cccs3)=NN2C(=O)CSc2nc(=O)n3ccc(C)cc3n2)cc1 (stereo unspecified)	·	·	69	25	·
N#C/C(=C\c1cccnc1)C(=O)NC1CCCCC1	-9	-15	-1	7.6	2%
O=C(COC(=O)Cn1c(C(F)(F)F)nc2ccccc21)Nc1ccc2c(c1)OCCO2	7	-3	-3	0.0	-5%
COc1ccc(NC(=O)CCS(=O)(=O)c2cccc3nonc23)cc1	0	·	75	-1.9	68%
CCc1cc(=O)oc2cc(OC(=O)c3ccco3)ccc12	·	·	-19	26	·
O=C(CCC(=O)N1CCOc2ccc(Cl)cc21)NCCN1CCOCC1	·	·	-4	-0.7	·
COc1ccc(-n2c(COc3ccccc3)nnc2SCC(N)=O)cc1	4	-7	-7	·	-10%
COc1cc(CNCc2ccccc2C(F)(F)F)cc(OC)c1	11	·	-1	2.0	13%
CCCCN(CC)c1nc(N)c(C#N)c(CC#N)c1C#N	-2	-19	44	26	-5%
O=C(O)CC(CNC(=O)C1CCCN1C(=O)OCc1ccccc1)c1ccccc1 (stereo unspecified)	·	·	3	-2.7	·
Cc1ccc(S(=O)(=O)Cn2nnnc2CN2CCCC3(CCCCC3)C2)cc1	-4	-20	-6	11	-2%
Nc1c(C(=O)NCc2ccc3c(c2)OCO3)nnn1Cc1ccc(Br)cc1	·	·	4	1.4	1%
Cn1c(SCC(=O)c2cc(Cl)c(Cl)s2)nnc1-c1ccco1	·	·	2	2.7	-18%
COc1ccc(N(C(C)C(=O)NN=C2CCCC2)S(C)(=O)=O)cc1 (stereo unspecified)	4	·	-1	1.6	2%
O=C(NCc1ccc(C(F)(F)F)cc1)c1ccc2c(c1)S(=O)(=O)c1ccccc1C2=O	·	·	0	-1.2	-10%
COc1ccccc1C(=O)Nc1ccnn1C1CCN(Cc2cnn(C)c2)CC1	·	·	0	-2.8	·
COc1ccc(NC(=O)CCc2nnc3ccc(NCc4ccco4)nn23)cc1OC	·	·	-8	2.2	·
C=CCNc1ncnc2c1[nH]c1ccc(C)cc12	6	-57	15	1.5	11%
O=C(c1ccc2c(c1)N(Cc1ccc(F)cc1)C(=O)c1ccccc1S2(=O)=O)N1CCN(c2ccccn2)CC1	0	·	4	15	14%
CCCc1nnc2n1N=C(c1ccc(-c3cc(Cl)ccc3Cl)o1)CS2	-5	-15	·	·	-6%	Arbovirus inh repeat=-1
Cc1ccc(NC(=O)c2cn(-c3cccc(C)n3)cn2)cc1	-1	-21	1	0.5	2%

4 compounds from above, arranged by formula weight, descending:
SMILES	Arbovirus inh	YopH PTP inh	Mtb betalactam	RecA splice inh	Mtb H37Rv	others
COc1ccc(NC(=O)CCc2nnc3ccc(NCc4ccco4)nn23)cc1OC	·	·	-8	2.2	·
Cc1ccc(S(=O)(=O)Cn2nnnc2CN2CCCC3(CCCCC3)C2)cc1	-4	-20	-6	11	-2%
CCCc1nnc2n1N=C(c1ccc(-c3cc(Cl)ccc3Cl)o1)CS2	-5	-15	·	·	-6%	Arbovirus inh repeat=-1
Cc1ccc(NC(=O)c2cn(-c3cccc(C)n3)cn2)cc1	-1	-21	1	0.5	2%

(continued)
SMILES	Arbovirus inh	YopH PTP inh	Mtb betalactam	RecA splice inh	Mtb H37Rv	others
CC(C)(CO)NS(=O)(=O)c1ccc2c(c1)C(=NO)c1cc(S(=O)(=O)NC(C)(C)CO)ccc1-2	1	·	-1	9.6	-5%
Cc1ccc(Cl)cc1N(CC(=O)N1CCOCC1)S(C)(=O)=O	·	·	-3	-2.2	·
CCOc1nc(Nc2ccc(Cl)cc2)nc(OCC)n1	·	·	9	0.3	·
O=C(C1CCCO1)N1CCN(S(=O)(=O)c2ccc(Cl)cc2)CC1 (stereo unspecified)	·	·	-3	3.3	·
CC(=O)c1c(C)[nH]c(C(=O)NCCC2=CCCCC2)c1C	8	-3	-4	0.2	4%
CCN1CCN(c2cc(=O)n(-c3cc(Cl)ccc3C)c(=O)[nH]2)CC1	-1	-48	9	0.8	2%
COc1ccc(-c2n(CC(=O)OC3CC(C)CCC3C(C)C)c3ccccc3[n+]2C)cc1 (stereo unspecified)	-31	·	·	9.4	0.98µM*
N#CCCn1cc(/C=C/C(=O)O)c(-c2ccc(F)cc2)n1	3	·	5	1.8	-4%
CCC(=Nc1ccccc1)C1=C(O)CC(C)(C)CC1=O	6	·	·	1.2	-8%
CCOC(=O)C1(Cc2ccccc2)CCCN(C(=O)C=C(C)C)C1 (stereo unspecified)	·	·	-5	-0.3	·
COC(=O)C1=C(C(=O)OC)[C@@H]2N(C)c3ccc(OC)cc3[C@@]23C[C@@H](C(=O)OC)N(S(=O)(=O)c2ccc(OC)cc2)C3=N1	·	·	-8	3.3	1%
CC(C)c1ccc(NS(=O)(=O)c2ccc(-n3cccn3)cc2)cc1	·	·	2	2.4	·
Cc1c(-n2cc(C(=O)c3ccccc3O)cc(C#N)c2=O)c(=O)n(-c2ccccc2)n1C	-2	-56	-2	1.7	·
CN1C(=O)CSc2ccc(NC(=O)NCc3ccco3)cc21	-2	-4	2	-0.1	-7%
O=C(O)CN1C(=O)NC2(CCCc3ccccc32)C1=O (stereo unspecified)	·	·	-7	0.3	·
Cc1cc(C)n(CC(=O)NCc2cc(-c3nn(C)c(=O)c4ccccc34)ccc2C)n1	-3	28	-5	2.7	-1%
O=C(N/N=C/c1cc(Br)c(Br)o1)c1cc2ccccc2o1	·	·	-4	-1.5	·
CC(C)Cc1nc(N2CCN(C(=O)c3ccco3)CC2)c(C#N)c2c1CCCC2	·	·	61	24	·
Cc1csc(CN(C)C(=O)c2cn(Cc3cccc4ccccc34)nn2)n1	·	·	-2	3.6	·
OCCN(Cc1ccccc1)C(=S)NC1CCCCC1	2	·	-9	0.1	-4%
O=C(c1ccccc1)c1c[nH]c2cc3c(cc2c1=O)OCCO3	-7	-17	-13	-0.4	-3%
Cc1onc(-c2c(Cl)cccc2Cl)c1C(=O)N1CCc2ccccc2C1	12	-106	2	6.4	·
COC(=O)c1ccc(COc2ccccc2/C=N/NS(=O)(=O)c2ccccc2)cc1	-16	-15	1	1.9	-5%
CCOC(=O)c1[nH]c2cc(OC)c(OC)cc2c1NC(=O)CCN1CCSCC1	·	·	0	-0.4	7%

Reprinted from the entries so far (3 entries):
SMILES	Arbovirus inh	YopH PTP inh	Mtb betalactam	RecA splice inh	Mtb H37Rv	others
Cc1csc(CN(C)C(=O)c2cn(Cc3cccc4ccccc34)nn2)n1	·	·	-2	3.6	·
OCCN(Cc1ccccc1)C(=S)NC1CCCCC1	2	·	-9	0.1	-4%
O=C(c1ccccc1)c1c[nH]c2cc3c(cc2c1=O)OCCO3	-7	-17	-13	-0.4	-3%

Remaining list, next part:
SMILES	Arbovirus inh	YopH PTP inh	Mtb betalactam	RecA splice inh	Mtb H37Rv	others
CCn1cc(CN2CCCC(C(=O)c3ccc(-c4ccccc4)c(F)c3)C2)cn1 (stereo unspecified)	·	·	-3	-0.5	0%
Cc1ccc(NC(=O)c2ccc(NCc3ccc(F)cc3)nc2)cc1	-13	·	-4	-2.9	0%
O=C(Nc1cccn2ncnc12)C(F)(F)F	10	·	0	1.5	-4%
O=C(N1CCOCC1)N1CCN(S(=O)(=O)c2ccc(F)cc2)CC1	·	·	9	0.2	·
C/C(=N\Nc1nncc2ccccc12)c1ccc(OCC(=O)N(C)C)cc1	·	·	-3	-0.7	·
COc1ccc([N+](=O)[O-])cc1NC(=O)CSc1nncn1-c1ccccc1	0	-20	-4	-0.8	0%
CCn1c(SCc2ccccc2)nc2c1c(=O)[nH]c(=O)n2C	·	·	-7	0.7	·
Nc1ccc(C(=O)N/N=C\C=C\c2ccc([N+](=O)[O-])cc2)cc1	0	·	-1	0.0	4%
CC(C)Cn1c(N)c(C(=O)COC(=O)c2ccncc2)c(=O)n(C)c1=O	5	-18	-5	9.2	5%
COc1ccc(S(=O)(=O)N2CCCCCC2)cc1C(=O)N(C)CC(=O)Nc1c(Cl)cccc1Cl	·	·	2	0.1	·
Cc1cccc(C)c1NC1=NC(C)(C)N=C(N)N1	-1	-32	1	-2.8	2%
Cc1nn(Cc2ccccc2)c(C)c1C(=O)NC1CCCc2ccccc21 (stereo unspecified)	10	-15	-4	1.9	-6%
O=C(N/N=C/c1ccc(N2CCOCC2)cc1)C1COc2ccccc2O1 (stereo unspecified)	1	·	-3	-1.5	1%
Cc1ccc(N2C(=O)SC(Cc3ccccc3)C2=O)cc1 (stereo unspecified)	·	·	3	0.0	9%
O=C(CCSc1ccccc1Cl)NNC(=O)c1ccncc1	·	·	98	2.1	·
COC(=O)c1sc2nc(SCc3ccccc3C#N)n(N)c(=O)c2c1C	5	-27	2	-1.0	3%
COc1cccc(NC(=O)C2CC(=O)N(Cc3ccc(C)cc3)C2)c1 (stereo unspecified)	·	·	2	0.1	·
Cn1c(C(=O)Nc2ccc3c(c2)OCO3)cc2c(=O)n(C)c3ccccc3c21	-3	-32	?	0.3	3%	Arbovirus inh repeat=-6
CCn1c(Cc2ccccc2)nnc1SCc1cccc(C(=O)O)c1	9	-14	7	2.1	-7%
CN1CCN(CC(=O)Nc2ccccc2Oc2ccccc2)CC1	·	·	2	2.4	-13%
CNC(=O)c1cc(Nc2nnc(-c3ccc(O)cc3)c3ccccc23)ccc1OC	-15	·	24	2.5	2%
O=C(O)c1cccnc1SCc1cn2cc(Br)ccc2n1	-1	·	0	-4.9	-2%
CCOC(=O)N1CCN(C(=O)c2cc(-n3cnnc3)ccc2Cl)CC1	3	-34	6	0.9	-2%
CCN1CCN(C(=O)c2ccc(OC)c(S(=O)(=O)Nc3ccc(C)cc3)c2)CC1	4	·	0	-2.8	-8%

Next section (two carried over from the part before).
SMILES	Arbovirus inh	YopH PTP inh	Mtb betalactam	RecA splice inh	Mtb H37Rv	others
CCOC(=O)N1CCN(C(=O)c2cc(-n3cnnc3)ccc2Cl)CC1	3	-34	6	0.9	-2%
CCN1CCN(C(=O)c2ccc(OC)c(S(=O)(=O)Nc3ccc(C)cc3)c2)CC1	4	·	0	-2.8	-8%
O=C(c1ccco1)N1CCN(C(c2cccs2)c2nnnn2C2CCCCC2)CC1 (stereo unspecified)	-2	-41	5	3.0	-4%
COc1c(/C=N/Nc2ccc([N+](=O)[O-])cc2[N+](=O)[O-])c(C)nn1-c1ccccc1	-4	-20	8	0.3	1%
Cc1csc(=Nc2cccnc2)n1Cc1ccco1	1	·	-7	1.8	11%
N#Cc1ccc(/C=C/C(=O)O)cc1	·	·	2	-1.8	-1%
